AID504770 – growth inhibition of E. coli YBA685, primary screen, V. cholerae RctB inhibitors. z-score (concentration not given with the values). 130,000 compounds, 0.27% hits. E. coli YBA685 rctB-dependent plasmid, OD600 growth, 3 h; hits give low values;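 active = z-score under -2 on both plates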;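 note: wells of about 30 µL received 100 nL stock; score is relative to mean and SD of the test wells; the first replicate is given; strong numbers were not always called active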
CapD inh – Bacillus anthracis CapD inhibitors, primary screen, biochemical, fluorescence intensity. CapD gamma-glutamyltranspeptidase (Bacillus anthracis Ames Ancestor). purified CapD enzyme, fluorescence intensity read-out; hits give low values; some hits fall short of the stated cut. z-score (concentration not given with the values). 140,000 compounds, 0.23% hits;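 active = z-score under -4 in either of two replicates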;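 note: stock transfer was 100 nL into about 40 µL; score is relative to mean and spread of the plate; one replicate is shown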
Starred values were filed as active, the others as inactive; / = not tested or not shown; & = joins results of further samples.

canonical_smiles,AID504770,CapD inh
COc1ccc(CC(=O)NC(C)C(c2cccs2)N2CCN(C)CC2)cc1OC (centres undefined),-0.25,-0.055
CC(=O)OC(C#CCN1CCOCC1)c1ccccc1 (centres undefined),-0.35,0.77
Cc1ccc(S(=O)(=O)C2(C(=O)O)CC2)cc1C,-0.2,/
Cc1nsc(Nc2ccccc2)c1C#N,-0.25,/
CC(C)(C)c1ccc(-c2nnc(SCc3cccc(C(N)=O)c3)n2-c2ccc3c(c2)OCO3)cc1,-1.1,-0.19
COc1cc(C2C(C#N)=C(N)Oc3c2c(=O)oc2ccccc32)ccc1OC(C)C (centres undefined),/,1.1
COc1ccc(-n2nc(C(=O)NCc3ccco3)c3c4ccccc4n(C)c3c2=O)cc1,-0.15,0.84
CCOC(=S)SCc1c(C)c(C)c(C)c(C)c1C,-0.8,-0.78
Cc1nnsc1C(=O)N1CCc2[nH]c3ccc(F)cc3c2C1,-0.85,-0.66
CCOc1cccc2cc(C(N)=O)/c(=N/c3sc4c(c3C(N)=O)CCCC4)oc12,/,0.7
O=[N+]([O-])c1cccc(-c2csc(=Nc3ccccc3)n2-c2ccccc2)c1,/,-0.6
COc1ccc(C)cc1-n1nnnc1SCc1nc2sc3c(c2c(=O)[nH]1)CCC3,0.5,/
CC1=CC(C)=NS(=O)(=O)N1,-0.95,/
CC1CCN(C(=O)Cn2ncc3c2-c2ccccc2OC3)CC1,-0.15,0.22
CNC(=O)C(C)n1nc(C)c2sc3ccccc3c2c1=O (centres undefined),-0.3,-0.08
CCc1ccc(-n2c(=S)sc3c(=O)n(-c4ccccc4)c(=S)[nH]c32)cc1,/,-1.8
Cc1ccc2c(c1)C1CN(C)CCC1N2C(=O)CN1CCCC1 (centres undefined),/,0.02
O=c1c(-c2ccccc2)[n+]([O-])c2ccccc2n1OCc1ccccc1,-0.2,-0.2
CCCc1c(C(=O)OCC)cnn1-c1ccc([N+](=O)[O-])cc1,/,-0.6
CCCCC(=O)Nc1nnn(CCC)n1,-0.75,-0.095

(listing goes on)
canonical_smiles,AID504770,CapD inh
N#CSC(C(=O)c1ccccc1)c1ccccc1 (centres undefined),-1.1,-0.085
Cn1nc(-c2ccccc2)cc1NC(=O)c1cccs1,1.5,-0.51
O=C(CSc1nccn1-c1ccccc1)N1CCc2ccccc21,-0.35,-0.31
CCC#CCOC(=O)N1CCN(c2ccc(C(F)(F)F)cn2)CC1,/,4.2
O=C(Nc1ccccn1)C12CCC(CC1)C2,0.4,0.23
Cc1ccc(N2CC(C(=O)Nc3ccc(S(=O)(=O)NC4CCCCC4)cc3)CC2=O)cc1 (centres undefined),-0.5,-0.41
O=C1C2=C(CCCC2)C(=O)N1CNc1ccccc1,0.05,0.74
Cc1cc(C)n(CCCC(=O)NCCn2nccc2C)n1,-0.45,/
CC(C)(c1ccccc1)c1ccc(O)cc1,-1.1,-0.03
O=C1C2CNC3(C(=O)Nc4ccccc43)C2C(=O)N1Cc1ccccc1 (centres undefined),2.4,-0.15
CCCN1CCN(CCCNC(=O)Nc2ccc3c(c2)N(Cc2ccc(C)cc2)C(=O)CS3)CC1,-1.3,-0.43
CN(CC(=O)N1CCCC1)c1nnc(N2CCCC2=O)s1,-0.45,0.67
CCOc1ccc(N(CC(=O)NCCSc2ccccn2)S(=O)(=O)c2ccc(SC)cc2)cc1,/,-0.16
N#C/C(C(=O)NCc1ccccc1)=C(/O)CN1C(=O)c2ccccc2C1=O,-0.2,/
Cc1cc(C)c2oc(-c3ccc(NC(=O)COc4ccc(Br)cc4)cc3O)nc2c1,0.2,5.5
Cc1ccnc(NC(=O)C(C)(C)Oc2ccc(Cl)cc2)n1,0.55,-0.37
COCCNC(=O)c1cc(-c2ccccc2)n[nH]1,-0.45,-1.7
CC(=O)N1CCN(Cc2csc(-c3ccc(F)cc3)n2)CC1,-0.5,/
FC(F)(F)c1cccc(OCCON/C=N\c2ncnc3sccc23)c1,/,0.35
O=C(NC1CC1)c1cc2c(s1)CS(=O)(=O)C2,0.75,0.24

More compounds
canonical_smiles,AID504770,CapD inh
COc1ccccc1C(=O)Nc1ccc2c(C)cc(=O)oc2c1,-0.15,11
O=C(OCCN1CCN(CCCN2c3ccccc3Sc3ccc(Cl)cc32)CC1)N1CCC(O)(Cc2ccccc2)CC1,/,0.52
CC1(C)CC(=O)C2=C(C1)Nc1ccc3ccccc3c1C2c1ccccc1Cl (centres undefined),/,14
O=S(=O)(NCCc1ccncc1)c1cccc2nonc12,/,-0.69
CSc1n[nH]c(NC2=CC(=O)CCC2)n1,0.45,/
CC1CCCC(C)N1NC(=O)c1cccc(S(=O)(=O)N2CCc3ccccc32)c1 (centres undefined),-1.1,/
O=C(O)c1cccc(N2N=C(C(F)(F)F)/C(=C/c3ccc(-c4ccc5c(c4)C(=O)NC5=O)o3)C2=O)c1,/,-0.16
O=C(NCCCN1CCN(c2ccccc2F)CC1)C1C2C=CC3(CN(Cc4ccccc4Cl)C(=O)C13)O2 (centres undefined),-0.4,0.015
Nc1nc(-c2ccc(Oc3ccccc3)cc2)cs1,0.95,-0.18
Cc1ccc(NC(=O)CNC(=O)C23CC4CC(CC(C4)C2)C3)c(O)c1,-0.8,/
Cc1cc(Cl)ccc1OCC(=O)Nc1sc2c(c1C#N)CCCCC2,/,-0.24
c1ccc(-c2cnc3n2CCCCC3)cc1,-0.8,0.25&0.23
O=C(Nc1ccccc1OC(F)F)C12CC3CC(CC(O)(C3)C1)C2,-0.3,/
C=CCN1C(=O)C(O)(c2sc(N3CCOCC3)nc2C)c2ccccc21 (centres undefined),1.2,/
CCOC(=O)C1CCN(C(=O)c2ccccc2NC(=O)C2=CSCCO2)CC1,0,-0.22
CC1(C)CC(=O)c2cc(OCC(=O)NCc3ccccc3)ccc2O1,0.4,-0.4
Cc1cc(-c2cc(N)n(-c3ccccc3)n2)c(C)n1-c1ccccc1F,-0.95,/
CN(C(=O)Cn1c(=O)n(CCCC(=O)NCc2ccco2)c(=O)c2sccc21)c1ccccc1,-0.85,0.29
CC(C)CNS(=O)(=O)c1ccc(S(=O)(=O)N2CCCN(Cc3ccccc3)C2)cc1,0.4,/
COC(=O)c1c(CSc2nnc(-c3ccc(OC(F)F)cc3)o2)nc2ccccc2c1C,-0.3,/

Complete entries from above.
COc1ccccc1C(=O)Nc1ccc2c(C)cc(=O)oc2c1 reads AID504770: -0.15; CapD inh: 11
C=CCN1C(=O)C(O)(c2sc(N3CCOCC3)nc2C)c2ccccc21 (centres undefined) reads AID504770: 1.2; CapD inh: /

More structures
canonical_smiles,AID504770,CapD inh
COc1ccc(/C(O)=C/c2nc3ccc(C(=O)NCCc4ccccc4)cc3[nH]c2=O)cc1,-0.5,1
CNc1nc(SCC(=O)OC)nc(N2CCOCC2)n1,1.1,/
CC1Sc2cc(S(=O)(=O)NCCc3ccccc3)ccc2NC1=O (centres undefined),-0.75,0.41
CC(=O)N1CCc2ccccc2C1CC(=O)O (centres undefined),2.3,-0.32
Cc1[nH]c2ccccc2c1C(=O)CN1C(=O)NC(CC(C)C)C1=O (centres undefined),-0.55,/
COc1ccc(C(=O)COC(=O)c2oc3ccccc3c2C)cc1OC,-1.1,/
CC(C)(C)c1csc(=Nc2ccc(F)cc2F)o1,-0.65,0.26
O=C(OC1OCCOC1OC(=O)c1ccc(F)cc1)c1ccc(F)cc1 (centres undefined),-0.75,/
Cc1cc(C(=O)NNC(=O)C(c2ccccc2)C2CCCCC2)n[nH]1 (centres undefined),/,-0.59
CC(=O)N1CC(C)Sc2cc(S(=O)(=O)N3CCCCC3)ccc21 (centres undefined),-1.2,-0.2
CC(C)N(Cc1nc2ccccc2c(=O)[nH]1)C(=O)c1cccc(C#N)c1,-0.6,/
Cc1ccc(N(C(=O)c2cc3ccccc3oc2=O)C2C=CS(=O)(=O)C2)cc1 (centres undefined),-0.35,-0.29
CCOc1ncccc1C(=O)Nc1ccnn1Cc1ccccn1,-0.8,/
O=C(Nc1cc(Cl)cc(Cl)c1)N1CCC(n2cccc2)CC1,-0.45,0.47
O=C(NC(=O)N1CCN(c2ccc(C(F)(F)F)cc2[N+](=O)[O-])CC1)c1ccccc1Cl,/,-0.58
Cc1cc(C)nc(Sc2ccc(Cl)nn2)n1,/,-0.26
COc1ccc2c(c1)-c1c(ssc1=S)C(C)(C)N2C(=O)CSc1nc2ccccc2o1,-0.15,-0.76
COc1ccc(C(=O)C(CN2CCCCC2)c2ccccc2)cc1 (centres undefined),1.2,-0.39
CCn1c(N2CCN(CC(=O)c3ccc(OC)cc3)CC2)nc2ccccc21,0,/
N#Cc1c(NC(=O)/C=C/c2cccs2)sc2c1CCCC2,-1.3,-0.71

Copied from above (4 entries):
canonical_smiles,AID504770,CapD inh
CC1Sc2cc(S(=O)(=O)NCCc3ccccc3)ccc2NC1=O (centres undefined),-0.75,0.41
CC(=O)N1CCc2ccccc2C1CC(=O)O (centres undefined),2.3,-0.32
Cc1[nH]c2ccccc2c1C(=O)CN1C(=O)NC(CC(C)C)C1=O (centres undefined),-0.55,/
COc1ccc(C(=O)COC(=O)c2oc3ccccc3c2C)cc1OC,-1.1,/

(listing goes on)
canonical_smiles,AID504770,CapD inh
COc1ccc(CC(=O)N2CCCC2c2nnc(SCc3ccccc3)n2C)cc1 (centres undefined),-0.3,/
COc1cc(OC)nc(-c2ccc(C(=O)NCc3cccc(C(F)(F)F)c3)cc2)n1,/,-0.21
CN(C)c1ccc(NC(=O)CSc2nc(N)cc(=O)[nH]2)cc1,-0.05,/
COC(=O)c1ccc(/C=C2\C(=O)N(c3ccc([N+](=O)[O-])cc3)N=C2c2ccccc2)cc1,/,0.3
Cc1ccc(N2C(=O)/C(=C/c3ccc(-c4ccc([N+](=O)[O-])cc4)o3)C=C2c2ccccc2)cc1[N+](=O)[O-],/,-0.31
CN(C)S(=O)(=O)Oc1ccc(C(=O)Nc2cc(Cl)ccc2Cl)cc1,/,0.43
O=C(Nc1ccc(N2CCCCC2)cc1)c1ccccn1,0.5,/
CCC(=O)N=c1sc2cc(S(N)(=O)=O)ccc2n1CCOC,1.5,/
O=c1c(-c2ccc(F)cc2)coc2c3c(ccc12)OCCO3,-0.1,/
CC12c3ccccc3C(C=O)(c3ccccc31)C1C(=O)N(c3cccc(Br)c3)C(=O)C12 (centres undefined),/,0.82
CN1C(=O)c2ccccc2C(C(=O)NCc2ccc(F)cc2)C1c1c[nH]c2ccccc12 (centres undefined),-1.1,5.8
O=C(NC1CCCC1)c1cc2c(=O)n3ccccc3nc2nc1NCC1CCCO1 (centres undefined),-0.55,/
CCCCn1c(=O)nc2n(-c3ccc(OC)cc3)c3ccccc3cc-2c1=O,/,-0.56
COc1ccc(S(=O)(=O)N(C(=O)C2CCCCC2)c2ccc3oc(=O)sc3c2)cc1OC,-0.1,-0.98
COc1ccc(NC(=S)NNC(=O)c2cc(OC)c(OC)c(OC)c2)cc1,/,0.04
CN(CCC#N)c1ccc(C=C2C(=O)NC(=O)NC2=O)cc1,/,0.96
CCOC(=O)C1(C(=O)O)NC(=O)CC1c1ccccc1 (centres undefined),-0.25,0.01
CC(C)Cc1cc2c(c(N)n1)c(=O)oc1ccccc12,0.35,31
O=C(O)CNc1ccc(-n2ccnc2)nn1,0.35,/
Nc1ccc(C(=O)N2CCOCC2)cc1,-1.2,-0.11

More results follow:
canonical_smiles,AID504770,CapD inh
N/C(=N\OC(=O)N1CCOCC1)c1ccccc1,-2.7*,0.39
CC(C(=O)Nc1ccc2c(c1)OCO2)N(C)Cc1c(F)cccc1Cl (centres undefined),-0.05,/
Cc1nnc2ccc(NN)nn12,-0.75,-0.3
O=C(COC(=O)c1cccc(NC(=O)c2ccc(Cl)cc2)c1)c1ccccc1,0.75,-0.27
CCCn1c(CCCNC(=O)CC)nc2ccccc21,1.6,-0.2
O=C1C2CC=CCC2C(=O)N1c1ccc(-c2nc3ccc(N4C(=O)C5CC=CCC5C4=O)cc3[nH]2)cc1 (centres undefined),/,50
Clc1ccc(N=C2SCC3CCCCN23)cc1 (centres undefined),3,/
CCC(C(=O)NCc1cc(Br)ccc1OC)n1nc(C)n2c(cc3occc32)c1=O (centres undefined),1.4,-0.35
COCCn1c(SCC(=O)N2CCCc3ccccc32)nc2c(c1=O)SC(C)C2 (centres undefined),0.45,-0.38
Cc1ccc(CN(C)C(=S)NCc2ccccc2)o1,-0.85,/
O=S(=O)(Cc1ccccc1)N1CCC(c2nc(-c3cccs3)no2)CC1,-1.6,/
O=C(NC1(C(=O)Nc2cccc(Cl)c2)CCCCC1)c1ccccc1,/,-0.16
N#C/C(=N\Nc1ccc(S(=O)(=O)N2CCCCC2)cc1)C(N)=S,-2.4,/
Cc1cc(=O)[nH]c(SCC(=O)Nc2cccc3ccccc23)c1C#N,-0.4,0.15
NNC(=S)NC1CCCCCCCCCCC1,-0.15,0.46
Nc1ccc(CN2CCOCC2)cc1,2,/
O=C(NCc1ccco1)c1cc2nc(-c3ccc(Br)cc3)cc(C(F)(F)F)n2n1,/,0.73
CC(=O)Nc1sc2c(c1C#N)CCC2,1.4,-0.42
O=C(Nc1ccc(Cl)cc1C(=O)c1ccccc1)c1ccc(Cl)cc1,/,0.23
c1ccc2nc(SCc3cn4ccccc4n3)cnc2c1,0.8,-0.92
C=CCNc1ncnc2c1c(-c1ccccc1)cn2-c1ccc(Cl)cc1,/,0.78

Screens: PubChem BioAssay, ICCB-Longwood Screening Facility, Harvard Medical School
